Compound activity from PubChem BioAssay.
nsP2pro inh – blocks chikungunya virus nsP2 protease peptide cleavage; 31,000 tested, 1.1% active; FRET peptide cleavage, nsP2pro, fluorescence 1 h; Potency, µM (highest dose often 24.9 µM), inactives show at the top dose activity change, negative = inhibition, usual class: inhibitors; AID 1964107; active means well fitted inhibition curve with a large enough effect; inconclusive means small, poorly fitted or top-dose-only effect; inactive means no such curve, though single readings can be large or run the other way; further: nearly all actives have a fitted effect of over 60% in size; a reference inhibitor and vehicle were the controls
Target sequence (Q8JUX6 whole entry, looked up): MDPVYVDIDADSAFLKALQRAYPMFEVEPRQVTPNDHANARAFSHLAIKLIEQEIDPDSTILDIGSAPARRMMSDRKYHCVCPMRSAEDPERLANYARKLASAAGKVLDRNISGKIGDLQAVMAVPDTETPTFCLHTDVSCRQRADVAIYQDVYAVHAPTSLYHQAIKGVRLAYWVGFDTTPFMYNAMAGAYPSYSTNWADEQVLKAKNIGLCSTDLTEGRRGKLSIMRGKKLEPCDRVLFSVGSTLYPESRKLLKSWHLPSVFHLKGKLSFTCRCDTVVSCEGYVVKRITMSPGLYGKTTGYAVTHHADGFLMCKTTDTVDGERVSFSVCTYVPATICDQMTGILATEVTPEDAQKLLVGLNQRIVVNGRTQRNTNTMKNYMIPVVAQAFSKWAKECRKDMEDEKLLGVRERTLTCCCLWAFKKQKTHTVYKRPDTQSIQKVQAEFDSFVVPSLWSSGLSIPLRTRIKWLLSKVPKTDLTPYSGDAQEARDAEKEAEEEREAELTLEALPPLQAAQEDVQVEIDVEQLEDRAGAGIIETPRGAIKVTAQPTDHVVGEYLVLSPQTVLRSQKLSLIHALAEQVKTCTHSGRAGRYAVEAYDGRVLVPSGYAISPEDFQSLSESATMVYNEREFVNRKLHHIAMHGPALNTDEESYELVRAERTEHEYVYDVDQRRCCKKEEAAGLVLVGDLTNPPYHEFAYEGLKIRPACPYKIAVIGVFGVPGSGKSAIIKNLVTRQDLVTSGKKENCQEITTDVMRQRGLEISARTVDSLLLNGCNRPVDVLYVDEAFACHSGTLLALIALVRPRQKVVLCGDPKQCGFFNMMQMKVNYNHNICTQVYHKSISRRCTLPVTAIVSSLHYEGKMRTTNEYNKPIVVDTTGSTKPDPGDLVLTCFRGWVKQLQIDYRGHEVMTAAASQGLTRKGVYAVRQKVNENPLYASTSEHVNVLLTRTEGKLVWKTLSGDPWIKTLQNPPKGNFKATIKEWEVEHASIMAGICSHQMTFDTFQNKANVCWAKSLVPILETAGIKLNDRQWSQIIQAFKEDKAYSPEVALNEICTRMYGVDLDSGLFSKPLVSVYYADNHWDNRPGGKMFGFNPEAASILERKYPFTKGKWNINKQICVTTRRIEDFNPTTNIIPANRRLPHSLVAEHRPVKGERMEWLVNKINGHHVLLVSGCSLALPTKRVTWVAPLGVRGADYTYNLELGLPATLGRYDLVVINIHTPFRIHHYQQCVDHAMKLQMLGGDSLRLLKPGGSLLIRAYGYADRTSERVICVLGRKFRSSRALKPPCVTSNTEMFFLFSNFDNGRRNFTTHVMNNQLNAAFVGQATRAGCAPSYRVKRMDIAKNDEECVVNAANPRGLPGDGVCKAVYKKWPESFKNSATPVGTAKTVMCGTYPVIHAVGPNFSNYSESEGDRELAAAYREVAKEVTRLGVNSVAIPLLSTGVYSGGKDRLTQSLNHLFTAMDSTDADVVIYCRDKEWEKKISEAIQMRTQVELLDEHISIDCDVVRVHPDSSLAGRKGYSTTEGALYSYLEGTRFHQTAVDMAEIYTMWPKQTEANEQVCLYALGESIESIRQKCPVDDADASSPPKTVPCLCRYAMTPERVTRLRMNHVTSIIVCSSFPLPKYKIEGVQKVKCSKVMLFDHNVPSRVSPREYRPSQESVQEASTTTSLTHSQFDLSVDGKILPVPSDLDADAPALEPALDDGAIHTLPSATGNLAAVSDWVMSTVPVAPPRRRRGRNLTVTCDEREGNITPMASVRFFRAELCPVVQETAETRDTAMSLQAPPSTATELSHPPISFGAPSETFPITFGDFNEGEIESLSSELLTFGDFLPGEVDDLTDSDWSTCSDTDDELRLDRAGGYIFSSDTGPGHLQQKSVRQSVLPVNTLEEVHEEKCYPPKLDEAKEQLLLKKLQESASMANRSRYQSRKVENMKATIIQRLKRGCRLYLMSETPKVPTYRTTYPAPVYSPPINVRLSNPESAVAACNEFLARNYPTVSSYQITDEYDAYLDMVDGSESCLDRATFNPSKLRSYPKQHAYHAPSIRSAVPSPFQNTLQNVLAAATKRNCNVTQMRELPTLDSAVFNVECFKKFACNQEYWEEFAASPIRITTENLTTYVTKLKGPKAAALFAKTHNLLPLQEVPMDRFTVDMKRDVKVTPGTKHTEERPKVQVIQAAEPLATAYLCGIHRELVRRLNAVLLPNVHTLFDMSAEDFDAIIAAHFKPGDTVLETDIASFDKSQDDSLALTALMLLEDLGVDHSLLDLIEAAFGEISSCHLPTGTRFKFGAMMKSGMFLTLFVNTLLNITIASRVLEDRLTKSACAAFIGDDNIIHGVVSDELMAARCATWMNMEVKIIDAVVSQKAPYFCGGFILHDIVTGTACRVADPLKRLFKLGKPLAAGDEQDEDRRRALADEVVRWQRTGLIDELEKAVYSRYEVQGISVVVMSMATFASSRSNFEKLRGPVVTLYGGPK
* marks the source's active call; other numbers are inactive results; i = inactive; ? = inconclusive; & = joins results of further samples; [ ] = remark or other dose. On the % scale 0 is the no-effect control and ±100 the full control effect; potency means the concentration at half of the fitted maximal effect.

SMILES,nsP2pro inh
O=C(c1cnc(C2CC2)nc1)N1CCC2(CCNCC2CO)CC1 (stereo not drawn),3%
COc1cc2[nH]c(=O)n(Cc3ccc(C(=O)N4CCN(c5cccc(C)c5C)CC4)cc3)c(=O)c2cc1OC,-12%
CN1CCc2cc3c(cc2C(=O)Cc2cc4c(cc2C1)OCO4)OCO3,?
CCCNC(=O)CSc1nc(-c2ccc(OC)cc2)cc(C(F)(F)F)n1,-19%
COc1cc(/C=C/C(=O)NCCn2c(C(F)(F)F)cc3ccccc32)cc(OC)c1OC,-8%
COc1ccc(CCNc2nc(-c3ccc(OC)c(OC)c3)cc(C(F)(F)F)n2)cc1OC,-6%
CCOc1ccc(N(CC)S(=O)(=O)c2cc(Br)cc3c2N(C(C)=O)C(C)C3)cc1 (stereo not drawn),-17%
O=C(NCc1c(F)cc(F)cc1F)c1cn2c(c(O)c1=O)C(=O)N1C3CCC(C3)OC1C2 (stereo not drawn),38%[activator]
COC(=O)c1ccc(OC)c(Cn2c(=O)n(-c3ccc(C)cc3)c(=O)c3c2cnn3C)c1,?
COc1ccccc1-n1cc(C(=O)N2CCCC2c2nonc2C)cn1 (stereo not drawn),i
CC1CC(=O)C2=C(O1)OC1(C)CCC3C(C)(C)C=CC(=O)C3(C)C1C2 (stereo not drawn),81%[activator]
COc1cccc(CN2CCC(Oc3ccccc3-c3nc(-c4ccncc4)no3)C2)c1 (stereo not drawn),i
O=C(Nc1ccccc1F)C1CN(C2CCCC2)C(=O)N1 (stereo not drawn),-1%[39.2 µM]
NC(=O)C1CCN(c2nc(-c3ccccc3C(F)(F)F)cs2)CC1,-5%
COc1cc(-c2nccc3c(=O)cc(N4CCOCC4)oc23)ccn1,-4%[39.2 µM]
C[C@]12CC[C@@H](O[C@@H]3O[C@H](CO)[C@@H](O)[C@H](O)[C@H]3O)C[C@@]1(O)CCC1C2CC[C@]2(C)[C@@H](C3=CC(=O)OC3)CC[C@]12O (stereo partly drawn),5%[10 µM]
Cc1ccc2c(Cl)cc(Cl)c(O)c2n1,-3%
Cc1ccc(S(=O)(=O)n2ccc(-c3c(-c4ccc(Cl)cc4)noc3C)n2)cc1,28%
CCCCc1nn2c(=O)cc(COC(=O)CNC(=O)COc3ccc(C)cc3)nc2s1,-24%
CC1CCN(CC2CCN(C(=O)NCc3ccc(F)cc3)CC2)CC1,-5%
CCOc1cc2sc(N3CCC(C(=O)Nc4ccc(C)cc4C)CC3)nc2cc1Br,-11%
O=C1CC2CCCC(C1)N2C(=O)c1ccncc1,-2%[39.2 µM]
COc1ccc(C(=O)N(Cc2ccccc2)Cc2ccc(OC)c(COc3ccc(NC(C)=O)cc3)c2)c(O)c1,-10%
O=C(Nc1nc2ccccc2s1)c1ccc(S(=O)(=O)N2CCCC2)cc1,-22%
Cc1ccc(CSc2ccc3nnc(CCNS(=O)(=O)c4ccc(C)cc4)n3n2)cc1,-5%
Cc1cc(C)cc(-n2cnc3cc(C(=O)NC4CCCCCC4)ccc32)c1,7%
C[C@]1(OC(=O)/C=C\c2ccc(O)cc2)C[C@@H](O)[C@]2(O)C=CO[C@@H](O[C@@H]3O[C@H](CO)[C@@H](O)[C@H](O)[C@H]3O)C12 (stereo partly drawn),7%[10 µM]
CCOC(=O)c1cccc(NC(=O)C(C)n2nc(C)c3c(C)n(-c4ccccc4)nc3c2=O)c1 (stereo not drawn),2%
CC(=O)NC1CC2(CCN(C(=O)CCCNC(=O)OC(C)(C)C)CC2)Oc2ccccc21 (stereo not drawn),?
Cc1nnc(Nc2sc3c(c2-c2nc4ccccc4s2)CCNC3)o1,-17%
CCCn1c(-c2ccc(F)cc2)nc2c(NCC3CCN(C)CC3)nc(C)nc21,1%
Cn1ccnc1CN[C@@H]1C[C@H](CO)[C@@H](O)[C@H]1O,-4%[39.2 µM]
NC(=O)[C@@H](CC1CC1)[C@@H](CCC(F)(F)F)C(=O)N[C@H]1N=C(c2ccccc2)c2cccc(F)c2NC1=O,-1%
O=C1c2ccccc2C(=O)c2cc(S(=O)(=O)Nc3cccc4cccnc34)ccc21,i
O=C(Nc1ccc(F)nc1)Nc1nnc(-c2ccncc2)s1,4%
O=C(NCc1ccccc1)C1CCCN1c1nccc(Nc2ccccc2F)n1 (stereo not drawn),4%
CC1CCN(c2ncncc2-c2nc(-c3ccccc3)no2)CC1,i
CC(=O)NCCc1ncc(C)n1C1CCCCC1,-11%
Cc1nc(N2CCOCC2)c2nc(-c3ccccc3)n(CCN3CCCCC3)c2n1,-5%
COc1cc(CCc2ccc(OCC=C(C)C)cc2)cc(OC)c1OC,18%
C[C@H]1O[C@@H](O[C@H]2CC[C@]3(CO)C4CC[C@]5(C)[C@@H](C6=CC(=O)OC6)CC[C@]5(O)[C@@H]4CC[C@H]3C2)[C@H](O)[C@H](O)[C@@H]1O[C@@H]1O[C@H](CO)[C@@H](O)[C@H](O)[C@H]1O (stereo partly drawn),148%[activator][10 µM]
CCc1cc(C(N)=O)ccc1-n1nc(C(C)C)c2c(-n3cnc(-c4cnn(C)c4)c3)ccnc21,-2%
Cc1cc2ccccc2n1-c1ccc(C(=O)N2CCC(C(=O)NCc3ccccc3Cl)CC2)s1,-8%
CC1CCN(CCCNC(=O)CN2C(=O)CSc3ccc(S(=O)(=O)N4CCC(C)CC4)cc32)CC1,-11%
C=C1C(=O)O[C@H]2[C@H]1[C@@H](OC(=O)C(C)CO)C[C@@]1(C)[C@H](O)CCC(=O)[C@H]21 (stereo partly drawn),?
CCc1cccc(CC)c1NC1=NS(=O)(=O)c2ccccc21,-8%
O=C(O)c1ccc2c(c1)C(=O)N([C@H](Cc1ccccc1)C(=O)O)C2=O,-7%
O=C1NC(NS(=O)(=O)c2ccccc2)(C(F)(F)F)C(=O)N1c1ccc(F)cc1 (stereo not drawn),-20%
CN(Cc1ccccc1)Cc1cn([C@H]2CO[C@H]3[C@@H]2OC[C@@H]3NCc2ccccc2)nn1,i
CC(C)NC(=O)C1CCCN1c1nc2ncccc2o1 (stereo not drawn),-8%[39.2 µM]
CCC(C)C1NC(=O)C2C(C)CCN2C(=O)C(CC(O)CO)OC(=O)CCNC(=O)C(C)N(C)C(=O)C(C(C)C)N(C)C1=O (stereo not drawn),-19%[10 µM]
CCCCC(CC)COc1ccc(-c2nc(-c3ccc(OC)cc3)nc(-c3ccc(OCC(CC)CCCC)cc3O)n2)c(O)c1 (stereo not drawn),23%[2.68 µM]
CCCCNC(=O)C1CCN(c2nc3ccccc3nc2C(F)(F)F)CC1,-7%
O=C1NC2(CCN([S+](=O)([O-])c3cccc(C(F)(F)F)c3)C2)COc2ccccc21 (stereo not drawn),i
Cc1cccc(N2C(=O)C(CC(=O)Nc3cccc(F)c3)N(CCc3ccncc3)C2=O)c1 (stereo not drawn),-8%
CCOC(=O)c1cnc2c(C)cc(C)cc2c1Nc1ccc(OCc2ccccc2)cc1,-27%

Continuation:
SMILES,nsP2pro inh
O=C(CSc1nc2sc3c(c2c(=O)[nH]1)CCCC3)Nc1ccccc1F,-22%
CCN1CCN(c2nc3c(s2)CN(Cc2ccccn2)CC3)CC1,i
CN1CCN(c2ccc(Nc3cc(-c4cccc(-n5ccc6cc(C7CC7)cc(F)c6c5=O)c4CO)cn(C)c3=O)nc2)CC1,?
CCC(C)CCCCC(=O)NC(CCN)C(=O)NC(C(=O)NC(CCN)C(=O)NC1CCNC(=O)C(C(C)O)NC(=O)C(CCN)NC(=O)C(CCN)NC(=O)C(CC(C)C)NC(=O)C(Cc2ccccc2)NC(=O)C(CCN)NC1=O)C(C)O (stereo not drawn),100%[activator][10 µM]
Cc1ccc2c(=O)c(C(=O)c3cccc(Cl)c3)cn(CC(=O)NC3CCCCC3)c2n1,-23%
Cc1cccnc1CN1CCN2C(=O)N(c3ccccc3)C[C@H]2C1,i
CCOC(=O)c1[nH]c(C)c(CCC(=O)Nc2cc(Cl)c(OC)cc2OC)c1C,-7%
Cc1nn(Cc2noc(C(=O)NCc3cccc(F)c3)n2)c(C)c1Br,-11%
CCCc1cc(C(=O)N[C@@H]2CCOC[C@H]2OCCO)n(C)n1,4%
CC(CC12CCCN1C(=O)C1CCCN1C2=O)OC(N)=O (stereo not drawn),-5%
CC(=O)c1ccc(NC(=O)C2=CC(c3ccc(C)cc3)=NS(=O)(=O)N2C)cc1,-5%
N#Cc1c(-c2ccc(F)cc2)no[n+]1[O-],-5%
CCOC(=O)c1[nH]c2c(c1C)C(=S)CC(c1ccco1)C2 (stereo not drawn),13µM*
CCN(CC)CCOCCOC(=O)C(CC)(CC)c1ccccc1,-2%&0%
COc1cc(/C=C/C(=O)OC[C@H]2O[C@@](CO)(O[C@H]3O[C@H](CO)[C@@H](O)[C@H](O)[C@H]3O)[C@@H](OC(=O)/C=C/c3ccc(O)c(OC)c3)[C@@H]2O)ccc1O,124%[activator][10 µM]
COCCNC(=O)c1ccc(OC2CCN(Cc3ccc(OC)cc3F)CC2)c(Cl)c1,i
O=C(CNC(=O)C1CCCCC1)OC(C(=O)c1ccccc1)c1ccccc1 (stereo not drawn),-8%
Cc1cc(C(=O)N2CCCCCC2CN2CCC(C)CC2)nn1C (stereo not drawn),i
O=C(COC(=O)CNC(=O)c1ccccc1)Nc1cc(C(F)(F)F)ccc1Cl,-5%
C#Cc1nc(Nc2cccc(Cl)c2)nc(NC2CCCC2)n1,i
CC(=O)Nc1sc2c(c1-c1ccc3nc[nH]c3c1)CCNC2,i
O=C(NCC1CCN(Cc2ccc(F)cc2)CC1)c1cc2ccc3cccnc3c2[nH]1,1%
Cc1ccccc1CN1CCC(N2CCC(n3c(=O)[nH]c4ccccc43)CC2)CC1,0%
COc1ccccc1Nc1nn2c(=O)c3ccc(C(=O)N4CCCCC4)cc3nc2s1,-8%
CN(C)c1nccnc1OC1CCN(S(=O)(=O)Cc2ccccc2)C1 (stereo not drawn),-8%
Cc1cccc(N2CCN(c3nc4ccccc4c4nc(-c5cccnc5)nn34)CC2)c1C,-14%
O=C(Nc1ccc(OC(F)(F)F)cc1)C(Cc1ccccc1)NS(=O)(=O)c1cccc2nsnc12 (stereo not drawn),-16%
C=C1C(=O)O[C@@H]2/C=C(\C)CC/C=C(/C=O)[C@H](OC)[C@@H](OC(=O)C(C)C)[C@@H]12,?
CCCCCCSc1nc(N)c2c3c(sc2n1)CCCC3C (stereo not drawn),-23%
CNC(=O)[C@@H]1CN(C(=O)c2ccncc2)C[C@H]1CO,i
O=C1COc2ccc(N3CCCC3)nc2CN1Cc1ccc(C(F)(F)F)cc1,2%[39.2 µM]
COc1ccccc1N1CCN(S(=O)(=O)c2cc(C(=O)Nc3ccc(Oc4ccccc4)cc3)ccc2F)CC1,-19%

Of the compounds above, 16 have an aryl methoxy group:
SMILES,nsP2pro inh
COc1cc2[nH]c(=O)n(Cc3ccc(C(=O)N4CCN(c5cccc(C)c5C)CC4)cc3)c(=O)c2cc1OC,-12%
CCCNC(=O)CSc1nc(-c2ccc(OC)cc2)cc(C(F)(F)F)n1,-19%
COc1cc(/C=C/C(=O)NCCn2c(C(F)(F)F)cc3ccccc32)cc(OC)c1OC,-8%
COc1ccc(CCNc2nc(-c3ccc(OC)c(OC)c3)cc(C(F)(F)F)n2)cc1OC,-6%
COC(=O)c1ccc(OC)c(Cn2c(=O)n(-c3ccc(C)cc3)c(=O)c3c2cnn3C)c1,?
COc1ccccc1-n1cc(C(=O)N2CCCC2c2nonc2C)cn1 (stereo not drawn),i
COc1cccc(CN2CCC(Oc3ccccc3-c3nc(-c4ccncc4)no3)C2)c1 (stereo not drawn),i
COc1cc(-c2nccc3c(=O)cc(N4CCOCC4)oc23)ccn1,-4%[39.2 µM]
COc1ccc(C(=O)N(Cc2ccccc2)Cc2ccc(OC)c(COc3ccc(NC(C)=O)cc3)c2)c(O)c1,-10%
COc1cc(CCc2ccc(OCC=C(C)C)cc2)cc(OC)c1OC,18%
CCCCC(CC)COc1ccc(-c2nc(-c3ccc(OC)cc3)nc(-c3ccc(OCC(CC)CCCC)cc3O)n2)c(O)c1 (stereo not drawn),23%[2.68 µM]
CCOC(=O)c1[nH]c(C)c(CCC(=O)Nc2cc(Cl)c(OC)cc2OC)c1C,-7%
COc1cc(/C=C/C(=O)OC[C@H]2O[C@@](CO)(O[C@H]3O[C@H](CO)[C@@H](O)[C@H](O)[C@H]3O)[C@@H](OC(=O)/C=C/c3ccc(O)c(OC)c3)[C@@H]2O)ccc1O,124%[activator][10 µM]
COCCNC(=O)c1ccc(OC2CCN(Cc3ccc(OC)cc3F)CC2)c(Cl)c1,i
COc1ccccc1Nc1nn2c(=O)c3ccc(C(=O)N4CCCCC4)cc3nc2s1,-8%
COc1ccccc1N1CCN(S(=O)(=O)c2cc(C(=O)Nc3ccc(Oc4ccccc4)cc3)ccc2F)CC1,-19%

These rows are one share of the data. The share of hits here may be higher or lower than overall.
